GIRK2 act: activators of human GIRK2 potassium channels; HEK293-GIRK2 thallium flux, Thallos fluorescence; calls only for hits at 25 µM; 63,000 compounds, 0.05% hits;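 active means among the strongest 0.2% of first-round signals and kept after retests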;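 further: first round at about 10 µM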
Target sequence (P48051 whole entry, looked up): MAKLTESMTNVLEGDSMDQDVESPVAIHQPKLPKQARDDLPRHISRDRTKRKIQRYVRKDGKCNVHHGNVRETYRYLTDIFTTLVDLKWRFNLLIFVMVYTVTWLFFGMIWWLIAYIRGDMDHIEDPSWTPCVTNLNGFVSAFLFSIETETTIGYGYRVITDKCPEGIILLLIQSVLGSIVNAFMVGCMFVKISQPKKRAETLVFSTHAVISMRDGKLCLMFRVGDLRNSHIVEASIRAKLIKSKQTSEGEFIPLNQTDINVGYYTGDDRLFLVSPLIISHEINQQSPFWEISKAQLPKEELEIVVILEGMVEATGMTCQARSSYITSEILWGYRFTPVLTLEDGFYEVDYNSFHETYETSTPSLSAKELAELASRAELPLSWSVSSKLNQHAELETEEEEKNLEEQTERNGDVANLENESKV
Calls only; i = inactive. An excerpt, so the mix of outcomes need not match the whole.

Sample of the layout (3 entries):
| GIRK2 act | Compound |
| --- | --- |
| i | Cc1nc(Nc2ccc(NC(=O)/C=C/c3ccco3)cc2)cc(-n2cccn2)n1 |
| i | CCOC(=O)c1cnn2ccc(NC(=O)c3cc(C)oc3C)cc12 |
| i | CN1CCCCC1CCN1c2ccccc2Sc2ccc(S(C)=O)cc21 (configuration not stated) |

Main list (from the top)
| GIRK2 act | Compound |
| --- | --- |
| i | Cc1nc(Nc2ccc(NC(=O)/C=C/c3ccco3)cc2)cc(-n2cccn2)n1 |
| i | CCOC(=O)c1cnn2ccc(NC(=O)c3cc(C)oc3C)cc12 |
| i | CN1CCCCC1CCN1c2ccccc2Sc2ccc(S(C)=O)cc21 (configuration not stated) |
| i | Cc1cc(NC(=O)C2CCN(S(C)(=O)=O)CC2)n(CCO)n1 |
| i | COC(=O)c1sccc1S(=O)(=O)N1CCN(c2nc3c(C(F)(F)F)cccc3s2)CC1 |
| i | CCOCCN1N=C(c2ccc(F)cc2)Cn2c1nc1c2c(=O)n(CCOCC)c(=O)n1C |
| i | O=C(Cn1nc(C(=O)N2CCOCC2)cc1-c1cccs1)NCCC1=CCCCC1 |
| i | COc1ccc(C2CC(c3cccc(NS(C)(=O)=O)c3)=NN2C(C)=O)cc1O (configuration not stated) |
| i | COc1cccc(C2C(=C(O)c3ccncc3)C(=O)C(=O)N2CCCN2CCOCC2)c1 (configuration not stated) |
| i | COCCn1c(=N)c(S(=O)(=O)c2ccc(F)cc2)cc2c(=O)n3ccccc3nc21 |
| i | CNC(=O)c1cccc(-c2noc(C3CN(S(=O)(=O)C4CC4)C3)n2)c1 |
| i | CCCCOc1ccc(C(=O)NCCNc2ccc(-n3cccc3)nn2)cc1 |
| i | COc1cc(Cl)cc2c1OC(C)C(=O)N(c1c(F)cccc1F)C2 (configuration not stated) |
| i | CCSC1=NCCN1S(=O)(=O)c1ccc(Cl)cc1 |
| i | COc1ccc(OC)c(COCC(O)CN2CCN(c3cccc(Cl)c3)CC2)c1 (configuration not stated) |
| i | CC/C=C\C/C=C\C/C=C\C/C=C\CCCCC(=O)O |
| i | Cc1ccc(C)c(S(=O)(=O)NCc2ccc(C(=O)N3CCN(c4ccccc4)CC3)cc2)c1 |
| i | COc1ccc(NC(=O)Cn2nc3c(Oc4ccc(C)cc4)nccn3c2=O)cc1OC |
| i | Cc1ccc(-c2nc(Cn3nnc(-c4nc(-c5ccc(Br)cc5)no4)c3C)c(C)o2)cc1 |
| i | COc1ccc(C(=O)NCCC23CC4CC(CC(C4)C2)C3)cc1 |
| i | CNC(=O)C(=O)NCC1OCCCN1S(=O)(=O)c1ccc(OC)c(OC)c1 (configuration not stated) |
| i | CCN1CCN(c2cc3c(cc2F)c(=O)c(S(=O)(=O)c2cc(C)ccc2C)cn3C)CC1 |
| i | O=C(c1nnn(-c2ccc(OC(F)(F)F)cc2)n1)N1CCN(c2ncccn2)CC1 |
| i | CCC(CC)C(=O)Oc1c(S(=O)(=O)c2ccc(C)cc2)c(C)nn1-c1ccccc1 |
| i | Cc1ccc(N(C)S(=O)(=O)c2ccsc2C(=O)Nc2ccc(F)c(Cl)c2)cc1 |
| i | COc1cc(NC(=O)c2cccnc2)ncn1 |
| i | Cc1nc(C(=O)N2CCC(c3nnc(C4CC4)o3)CC2)cs1 |
| i | O=C(NCC1(O)CCc2ccccc2C1)c1cccs1 (configuration not stated) |
| i | COc1ccc(OC)c(NC(=O)CSc2cc(NCc3ccc(Cl)cc3)ncn2)c1 |
| i | O=C(NCCS(=O)(=O)N1CCN(c2ccccc2)CC1)c1ccc2c(c1)OCO2 |
| i | CC(Cc1ccco1)NC(=O)Nc1cccs1 (configuration not stated) |
| i | Cc1ccc(Oc2nccn3c(=O)n(CC(=O)Nc4ccc(C)cc4Br)nc23)cc1 |
| i | Cn1c(SCC(=O)c2ccc([N+](=O)[O-])cc2)nc2c1c(=O)n(Cc1ccccc1)c(=O)n2C |
| i | COc1ccccc1-n1nnnc1SCC(=O)Nc1ccc(Cl)c(C(F)(F)F)c1 |
| i | CC(C)(C)C(O)CCNS(=O)(=O)CCc1ccccc1 (configuration not stated) |
| i | CC(=O)O[C@@H]1[C@@H](O)[C@H](C)O[C@@H](O[C@H]2[C@@H]3C=CO[C@@H](O[C@@H]4O[C@H](CO)[C@@H](O)[C@H](O)[C@H]4O)[C@@H]3[C@@]3(CO)O[C@@H]23)[C@@H]1OC(=O)/C=C/c1ccc(O)cc1 |
| i | CC(C)SC(=N)N |
| i | COc1cccc(NC(=O)Nc2cccc(-c3csc4nc(C)cc(=O)n34)c2)c1 |
| i | Cc1nc(NCCNC(=O)C2CCC(=O)N2)cc(Nc2ccccn2)n1 (configuration not stated) |
| i | Cc1c(C)n2c3c(=O)n(C)c(=O)n(C)c3nc2n1-c1ccc(F)cc1 |
| i | O=C(NCCn1nc(C2CC2)n(-c2ccccc2)c1=O)c1cnn(-c2ccccc2)n1 |
| i | CN(C)c1cccc(C(=O)NCC(O)c2ccc3c(c2)CCO3)c1 (configuration not stated) |
| i | COc1ccc(S(=O)(=O)N2CCC(c3nnc(-c4ccccc4OC)s3)CC2)cc1 |
| i | Cc1nc2c(=O)n(CC(=O)N(C(C)C)C(C)C)nc(-c3cccs3)c2s1 |
| i | COc1ccc(-c2noc(Cn3nc(-c4ccc(OC)c(OC)c4)ccc3=O)n2)c(OC)c1 |
| i | Cn1nc(C(=O)Nc2ccc(F)c(Cl)c2)ccc1=O |
| i | Cn1cnnc1SCCNC(=O)c1coc(NC(=O)c2ccccc2)n1 |
| i | O=C(NCC1(CO)CC1)c1ccc2c(c1)OCO2 |
| i | O=C(c1cc2ccccc2o1)N1CCN(C(=O)C2CC2c2ccccc2)CC1 (configuration not stated) |
| i | CCCCC(C)(C)[C@H](O)/C=C/[C@@H]1[C@@H](C/C=C\CCCC(=O)O)[C@@H](O)C[C@H]1O |

Further results
| GIRK2 act | Compound |
| --- | --- |
| i | O=C(CSCc1ccccc1)Nc1cccc(-c2ccn[nH]2)c1 |
| i | O=C(/C=C/c1ccco1)N1CCc2cc(S(=O)(=O)NC3CCCC3)ccc21 |
| i | CCc1cc2c(N3CCN(c4ccccn4)CC3)nc(C)nc2s1 |
| i | Cn1cccc(C(=O)NCC(C)(O)c2cccs2)c1=O (configuration not stated) |
| i | CC(=O)Oc1ccc2c(-c3cc4cc(Br)ccc4oc3=O)cc(=O)oc2c1 |
| i | COc1cc2nc(SCC(N)=O)n3nc(CCn4nc(C)cc4C)nc3c2cc1OC |
| i | CCOc1ccc(-c2cc3c(N4CCC(C(=O)NCCc5ccccc5)CC4)nccn3n2)cc1 |
| i | COc1ccc(CC(=O)NCc2n[nH]c(=O)c3ccccc23)cc1 |
| i | CC(O)(CNC(=O)c1ccco1)c1ccco1 (configuration not stated) |
| i | CCCCOc1ccc(C(=O)Nc2ccc(S(=O)(=O)Nc3cc(OC)ncn3)cc2)cc1 |
| i | COc1ccc(CNC(=O)Cn2c(N)nc(C)cc2=O)cc1OC |
| i | CCN(CC)c1ccc(-c2noc(CN3CCN(c4cccc(C)c4)CC3)n2)cn1 |
| i | O=C(Nc1ccc(Cl)c(Cl)c1)N1CCC(COCc2ccc(F)cc2)CC1 |
| i | CC(=O)N1CCN(S(=O)(=O)c2cccc(C(=O)NCc3cccnc3)c2)CC1 |
| i | O=C(Cn1c(=O)nc(-c2ccccc2)c2ccccc21)NCCc1ccccc1 |
| i | CCN(C(=O)c1cc2c(=O)n3cc(C)ccc3nc2n1Cc1ccccc1)C1CCCCC1 |
| i | CCN1C(=O)COc2ccc(-c3csc(NC(=O)COc4cccc(C)c4C)n3)cc21 |
| i | Cc1nc(NCCNC(=O)C2CCC(=O)N2)cc(-n2cccc2)n1 (configuration not stated) |
| i | CCc1ccc(-n2cc(C(=O)N3CCC(NC(=O)c4cccs4)CC3)nn2)cc1 |
| i | Cn1c(CN2CCN(C(=O)NCc3cccs3)CC2)nc2ccccc21 |
| i | CC(C)OCCCNc1nc2c(c(=O)[nH]c(=O)n2C)n1CCCOc1ccccc1 |
| i | CC(C)Oc1ccc(C(=O)NCC(c2cccn2C)N2CCCC2)cc1 (configuration not stated) |
| i | CCOC(=O)NCC#CCOc1ccccc1OC |
| i | Cc1cn2c3c(=O)[nH]c(=O)n(C)c3nc2n1CCCN(C)C |
| i | Cc1cc(-n2nnc(C(=O)NCCc3ccc(Cl)cc3)c2-c2cccnc2)ccc1F |

Random excerpt: 7 records from the list.
| GIRK2 act | Compound |
| --- | --- |
| i | Cc1nc(NCCNC(=O)C2CCC(=O)N2)cc(Nc2ccccn2)n1 (configuration not stated) |
| i | COc1cc2nc(SCC(N)=O)n3nc(CCn4nc(C)cc4C)nc3c2cc1OC |
| i | COc1ccc(S(=O)(=O)N2CCC(c3nnc(-c4ccccc4OC)s3)CC2)cc1 |
| i | Cn1nc(C(=O)Nc2ccc(F)c(Cl)c2)ccc1=O |
| i | CCc1cc2c(N3CCN(c4ccccn4)CC3)nc(C)nc2s1 |
| i | O=C(NCCS(=O)(=O)N1CCN(c2ccccc2)CC1)c1ccc2c(c1)OCO2 |
| i | CCc1ccc(-n2cc(C(=O)N3CCC(NC(=O)c4cccs4)CC3)nn2)cc1 |

Next section.
| GIRK2 act | Compound |
| --- | --- |
| i | CCc1cnc2c(c1SCC(=O)Nc1cc(OC)ccc1OC)c(=O)n(C)c(=O)n2C |
| i | CCCCN1CC(c2nc3ccccc3n2CCOc2ccccc2OC)CC1=O (configuration not stated) |
| i | Cc1cc(C(=O)N2CCN(C(=O)C3CC3c3ccc(F)cc3)CC2)c(C)o1 (configuration not stated) |
| i | CCOC(=O)C1CCN(C(=O)c2cc(=O)c(OCc3cccc(OC)c3)co2)CC1 |
| i | COc1ccc(Br)cc1-c1nc(Cn2nnc(C(=O)Nc3ccccc3C)c2N)c(C)o1 |
| i | COc1ccc(CCNC(=O)N2CCCSCC2CN2CCCC2)cc1 (configuration not stated) |
| i | COc1ccccc1OCC#CCNC(=O)Cc1cn(C)c2ccccc12 |
| i | Cc1c(Cl)cccc1S(=O)(=O)NCC1CCN(C(=O)c2cccnc2)CC1 |
| i | O=C1/C(=C/c2ccc(Br)cc2)Oc2c1ccc1c2CN(Cc2ccncc2)CO1 |
| i | O=C(c1cccc(C(F)(F)F)c1)N(CCc1cccs1)Cc1ccco1 |
| i | COc1ccc(-c2noc(-c3cn[nH]c3-c3ccc(Cl)cc3)n2)cc1 |
| i | COc1ccc(-c2ccc(=O)n(CCNC(=O)c3ccc(S(=O)(=O)N(C)C)cc3)n2)cc1 |
| i | CCn1c(SCC(=O)Nc2ccccc2)nc2c1c(=O)n(C)c(=O)n2C |
| i | COc1ccc(CNc2oc(-c3ccc(S(=O)(=O)N4CCCC4)cc3)nc2C#N)cc1 |
| i | Cc1cc(C(=O)Nc2ccc(-c3ccn[nH]3)cc2)c(C)o1 |
| i | O=C(NCc1ccco1)C(c1ccccc1)n1cccc1 (configuration not stated) |
| i | O=C(c1ccccc1F)N1CC(c2nc(-c3ccc[nH]c3=O)no2)C1 |
| i | O=C(CCCn1cccc1)Nc1ccc(F)c(Cl)c1 |
| i | CC(=O)N1c2ccc(S(=O)(=O)NCCOc3ccc4c(c3)OCO4)cc2CC1C (configuration not stated) |
| i | C#CC(C)(CC)OCC(O)CN1CCN(c2cccc(Cl)c2)CC1 (configuration not stated) |
| i | Cc1ccc(-c2cc3c(=O)n(CC(=O)Nc4ccc5c(c4)OCCO5)ccn3n2)cc1 |
| i | Cc1nc2ccccn2c1C(O)=C1C(=O)C(=O)N(CCN2CCOCC2)C1c1ccccc1 (configuration not stated) |
| i | CCOc1ccc(-n2c(SCC(=O)Nc3cccc(C)c3)nc3ncccc3c2=O)cc1 |
| i | COC(=O)c1ccc2c(=O)n(CCc3ccccc3)c(N3CCSCC3)nc2c1 |
| i | O=C(Nc1nc2c(s1)CN(C(=O)c1cc(-c3cccs3)[nH]n1)CC2)C1CC1 |
| i | COc1ccc2c(c1)c(CC(=O)NCc1ccc(Br)cc1)c(C)n2C(=O)c1ccc(Cl)cc1 |
| i | COc1ccc2c(=O)cc(-c3ccccc3)oc2c1/C=C/C(C)(C)O |
| i | CCOc1ccccc1Oc1cncnc1-c1ccc(OCc2ccccc2F)cc1O |
| i | COc1ccc(SCCCC(=O)Nc2c(C(N)=O)oc3ccccc23)cc1 |
| i | O=S(=O)(c1ccccc1)c1nc(Nc2cccc(O)c2)sc1Cl |
| i | Cc1cccc(N2CCN(S(=O)(=O)c3ccsc3C(=O)Nc3ccc(F)cc3)CC2)c1 |
| i | COc1ccc(CC(=O)N2CCC3(CC2)OCCS3)cc1OC |
| i | Cc1cnnn1-c1ccc(C(=O)Nc2ccc(Cl)c(Cl)c2)cc1 |
| i | CC(C)NC(=O)CCn1c(=O)c2ccccc2n2c(SCC(=O)Nc3ccccc3Cl)nnc12 |
| i | COc1cccc(Oc2c(-c3ccc(O)cc3O)n[nH]c2C)c1 |
| i | O=C(CC1CCCC1)Nc1cc(N2CCN(Cc3ccccc3)CC2)ncn1 |
| i | CS(=O)(=O)c1ccc2nc(N3CCN(C(=O)c4ccc(Cl)s4)CC3)sc2c1 |
| i | CC1(C)Cc2cccc(OCC(=O)NCCn3ccc(C(F)(F)F)n3)c2O1 |
| i | NC(=O)CSc1nnc2scc(-c3ccccc3)n12 |
| i | O=C(Nc1ccc2c(c1)OCCO2)c1cn(-c2cc(N3CCOCC3)ncn2)cn1 |
| i | Cc1noc(C)c1C(=O)NCC#CCOc1ccc2c(c1)OCO2 |
| i | Cc1cc(N2C(=O)CCS2(=O)=O)ccc1S(=O)(=O)NCCN(C)C |
| i | Nc1ccn([C@H]2CC[C@@H](CO)O2)c(=O)n1 |
| i | O=C(CCn1c(=O)c2ccccc2n2c(=O)n(Cc3ccccc3Cl)nc12)NC1CCCCC1 |
| i | COC(=O)c1ccc(S(=O)(=O)N2CCC(CSc3nccn3C)CC2)cc1 |
| i | Cn1c(=O)[nH]c(=O)c2c1nc(N1CCN(c3ccccc3)CC1)n2CCCc1ccccc1 |
| i | Cc1c(Cl)cccc1-n1ccnc(NCc2ccccc2)c1=O |
| i | CCOC(=O)c1ccc2nc(NC(=O)c3cccnc3)sc2c1 |
| i | O=C(Cn1c(=O)oc2ccccc21)N1CCOC(c2cc(Cl)cc(Cl)c2)C1 (configuration not stated) |
| i | CCOc1ccc(-n2c(C)c(C)n3c4c(=O)n(CC)c(=O)n(C)c4nc23)cc1 |
| i | COc1cc2nc(SCC#N)n3nc(CCn4nc(C)cc4C)nc3c2cc1OC |
| i | CCc1cccc(C)c1N(C(=O)Cn1c(CC)nc2ccccc21)C(C)COC (configuration not stated) |
